# CD11b adhes enh = enhancers of CD11b/CD18 adhesion to fibrinogen, primary screen, K562 cells, luminescence; Integrin beta-2 (Homo sapiens) + Integrin alpha-M (Homo sapiens), P05107+P11215; ATPlite luminescence; activation, % at 10 µM; 93,000 tested, 0.07% active;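 active means 10 µM primary screen giving 50% or more activity, confirmed by 40% or more on retest at that dose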; further: strong numbers were not always called active; reference of the scale not given here
# PLK1 inh = human PLK1 kinase inhibitors, primary screen, biochemical, TR-FRET | 97,000 tested, 0.53% active | inhibition, % at 10 µM | Serine/threonine-protein kinase PLK1 (Homo sapiens), P53350 | recombinant PLK1 kinase, TR-FRET peptide phosphorylation | AID 619, 2007;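 active means inhibition of 50% or more in the single-concentration screen; inactive means inhibition below 50%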;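 further: 0% = DMSO max control and 100% = H-89 dihydrochloride min control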
# Mac1 fbg inh = inhibitors of CD11b/CD18 adhesion to fibrinogen, primary screen, K562 cells, luminescence; AID 1497, 2009; Integrin beta-2 (Homo sapiens) + Integrin alpha-M (Homo sapiens), P05107+P11215; inhibition, % at 10 µM; ATPlite luminescence; Mn2+ added to activate the integrin; 93,000 tested, 0.54% active;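 active means primary inhibition of 50% or more at 10 µM, then 40% or more on retest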; further: some results filed as inactive read as strong as hits
# Plk1 PBD FP = Plk1 polo box domain binding inhibitors, primary screen, biochemical, fluorescence polarization; Serine/threonine-protein kinase PLK1 (Homo sapiens), P53350; Plk1 PBD phosphopeptide binding; inhibition, %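 (tested at about 20 µM)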; 97,000 tested, 0.13% active; in the data active means inhibition above about 34%, passing the limit was not always enough
# FAK inh = FAK kinase inhibitors, primary screen, biochemical | biochemical FAK kinase activity assay | inhibition, %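 (tested at 7 µM)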 | 97,000 tested, 0.84% active | AID 727, 2007; in the data active means inhibition above about 19%;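 further: 0% = DMSO and 100% = reference compound high control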
# Active calls of the source: *; / = not tested or not shown.
1	CN(C)CCCN1c2ccccc2Sc2ccc(Cl)cc21
2	CCCn1c(SCC(=O)NC(=O)NCc2ccco2)n[nH]c1=O
3	Cc1onc(-c2ccccc2)c1C(=O)Nc1ccccc1C#N
4	OC(CNCC1CCCO1)Cn1c2ccccc2c2ccccc21 (stereo not drawn)
5	O=C(CSc1nnc(Nc2ccccc2F)s1)NCc1ccco1
6	Nc1nc(-c2ccccc2)cs1
7	c1ccc(-c2ccc(-c3cn4c(n3)CCC4)cc2)cc1
8	COc1ccccc1N1CCN(CCCC(=O)c2ccc(F)cc2)CC1
screen / no.,1,2,3,4,5,6,7,8
CD11b adhes enh,/,7.4,-2.5,-0.9,-2.9,-1.3,-1.2,-7.3
PLK1 inh,-8.4,-8.8,66.8*,-6.1,-9.1,1.1,-8.8,1.5
Mac1 fbg inh,/,-14.2,-28.3,12.8,-13.5,-33.4,29.0,3.0
Plk1 PBD FP,-18.2,5.6,-6.1,17.0,-25.8,-22.1,8.0,-11.6
FAK inh,5.0,9.0,-4.0,2.7,13.9,0.4,-0.6,-0.9

# Pulled by structure from the list above, two records:
4	OC(CNCC1CCCO1)Cn1c2ccccc2c2ccccc21 (stereo not drawn)
8	COc1ccccc1N1CCN(CCCC(=O)c2ccc(F)cc2)CC1
screen / no.,4,8
CD11b adhes enh,-0.9,-7.3
PLK1 inh,-6.1,1.5
Mac1 fbg inh,12.8,3.0
Plk1 PBD FP,17.0,-11.6
FAK inh,2.7,-0.9

# Next compounds follow.
9	c1ccc(CNc2ncnc3nc[nH]c23)cc1
10	CN1CCc2c(c3ccccc3n2Cc2ccccc2)C1
11	CCN(CC)CCn1c2ccccc2c2cnc(N)c(C#N)c21
12	c1ccc(-c2nc[nH]c2-c2ccccc2)cc1
13	CNCCCC12CCC(c3ccccc31)c1ccccc12
14	Cc1cc2nc(N)sc2cc1C
15	Cc1cccc(Nc2ccccc2)c1
screen / no.,9,10,11,12,13,14,15
CD11b adhes enh,-2.7,-3.1,-0.4,0.7,/,-1.8,-4.7
PLK1 inh,27.0,-10.1,52.0*,-6.5,-4.5,-6.8,/
Mac1 fbg inh,-25.8,1.1,3.7,0.1,/,9.1,-11.2
Plk1 PBD FP,16.7,2.9,-19.5,-5.8,-23.7,-7.0,/
FAK inh,5.5,3.3,39.9*,8.3,-5.8,0.8,/

# In the list so far, 3 have a carbonyl joined to an NH by a bond outside any ring:
2	CCCn1c(SCC(=O)NC(=O)NCc2ccco2)n[nH]c1=O
3	Cc1onc(-c2ccccc2)c1C(=O)Nc1ccccc1C#N
5	O=C(CSc1nnc(Nc2ccccc2F)s1)NCc1ccco1
screen / no.,2,3,5
CD11b adhes enh,7.4,-2.5,-2.9
PLK1 inh,-8.8,66.8*,-9.1
Mac1 fbg inh,-14.2,-28.3,-13.5
Plk1 PBD FP,5.6,-6.1,-25.8
FAK inh,9.0,-4.0,13.9

# Compound profiles, as listed above. Order of screens: CD11b adhes enh, PLK1 inh, Mac1 fbg inh, Plk1 PBD FP, FAK inh
# c1ccc(-c2nc[nH]c2-c2ccccc2)cc1 as listed: 0.7, -6.5, 0.1, -5.8, 8.3
# CCN(CC)CCn1c2ccccc2c2cnc(N)c(C#N)c21 as listed: -0.4, 52.0*, 3.7, -19.5, 39.9*

# Screening results deposited in PubChem BioAssay by several laboratories.

# Some of the compounds tested. The share of hits here may be higher or lower than overall.
